Menin MLL FP TR = menin-MLL binding inhibition, Texas Red mutant peptide; O00255; Menin + Texas Red MLL mutant peptide, fluorescence polarization; Potency, µM (titrated, usually from 61.6 µM), for inactives: at the top dose FP activity change, negative = inhibition, most hits filed as inhibitors; actives 0.23% (n = 270,000); AID 1768; active = well fitted inhibition curve with a large enough effect in the polarisation, with a control signal flat, not every such curve was filed as active; inconclusive = small, poorly fitted or top-dose-only effect, or effect the other way, or a change in a side signal; inactive = no such curve, though single readings can be large or run the other way; the % refers to the polarisation; also: potency is read from the fitted curve at half-maximal effect; % of control where 0% means no effect; many of its hits are not listed in these tables
Target sequence (O00255 whole entry, looked up): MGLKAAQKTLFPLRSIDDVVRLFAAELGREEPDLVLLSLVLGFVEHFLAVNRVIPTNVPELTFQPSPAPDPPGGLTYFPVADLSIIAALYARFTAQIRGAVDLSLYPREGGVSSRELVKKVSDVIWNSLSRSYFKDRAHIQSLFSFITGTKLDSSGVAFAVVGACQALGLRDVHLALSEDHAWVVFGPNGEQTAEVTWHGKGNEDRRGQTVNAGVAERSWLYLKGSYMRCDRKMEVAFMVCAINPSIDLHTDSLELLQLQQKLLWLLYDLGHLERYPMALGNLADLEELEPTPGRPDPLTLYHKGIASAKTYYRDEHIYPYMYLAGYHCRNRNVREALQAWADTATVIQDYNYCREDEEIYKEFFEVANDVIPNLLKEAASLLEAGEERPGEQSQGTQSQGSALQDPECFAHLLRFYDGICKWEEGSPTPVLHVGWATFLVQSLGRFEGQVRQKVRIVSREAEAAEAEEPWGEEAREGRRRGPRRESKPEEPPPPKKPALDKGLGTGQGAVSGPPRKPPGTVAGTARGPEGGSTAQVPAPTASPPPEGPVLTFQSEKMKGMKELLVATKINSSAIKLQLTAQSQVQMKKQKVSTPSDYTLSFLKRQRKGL
ELG1 genotox = genotoxicity induction in ELG1-luciferase HEK293T cells; HEK293T ELG1-luciferase reporter, luminescence, 16 h; Potency, µM (doses to about 46 µM), for the others: top-dose activity change, positive = activation, actives largely listed as activators; actives 1.3% (n = 330,000); AID 504466; also: potency is read from the fitted curve at half-maximal effect; % of control where 0% means no effect; nearly all actives have a fitted effect of over 60% in size
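Screening used a luciferase reporter fused to human ELG1 in HEK293T cells. Luminescence was read on a CCD plate imager after 16 hr exposure and 30 min ONE-Glo incubation.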
BRCA1 expr up = increases BRCA1 expression; Potency, µM (doses to about 46.1 µM), for inactives: at the highest dose activation, actives largely listed as activators; MCF7-BRCA1-FFLuc reporter, luminescence, 48 h; response scale: scaled: vehicle 0%, 10 µM genistein 100%; actives 1.1% (n = 380,000); also: potency is read from the fitted curve at half-maximal effect; nearly all actives have a fitted effect of over 80% in size; some results filed as inactive show a strong effect at the top dose
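MCF7-BRCA1-FFLuc, 2000 cells/well; 2 h attach, 37 °C/5% CO2; compound 48 h; luciferase substrate 15 min; luminescence end-point. Norm. to genistein 10 microM max activation and DMSO; concentration-response curves fitted.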
Rab9 promoter act = activates the Rab9 promoter | Potency, µM (top dose mostly 9.22 µM), without a hit: at the highest dose activation, negative = inhibition, usual class: activators | Huh7 Rab9 promoter-luciferase reporter, luminescence, 24 h | actives 2.8% (n = 320,000); also: potency is read from the fitted curve at half-maximal effect; % of control where 0% means no effect; nearly all actives have a fitted effect of over 60% in size
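Promoter activation is measured as luciferase luminescence in Huh7 cells stably transfected with a Rab9 promoter–luciferase construct, following 24 h compound exposure at 37 °C and 10 min reagent incubation at ambient temperature.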
PKM2 activator = increases activity of human pyruvate kinase M2; P14618; purified PKM2, Kinase-Glo ATP luminescence, activation; response scale: 0% is enzyme alone, no compound; Potency, µM (series often up to 57.5 µM), inactives show at the top dose activation, usual class: activators; actives 0.34% (n = 260,000); AID 1631; also: potency is read from the fitted curve at half-maximal effect; % is scaled to controls: 0 for no effect and ±100 for the full control effect; nearly all actives have a fitted effect of over 55% in size
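Purified hPK-M2 (>95% pure) converted ADP (0.1 mM final) to ATP with 0.5 mM PEP in 50 mM imidazole pH7.2, KCl, MgCl2, Tween 20, BSA; 1 h at room temperature. ATP detected by Kinase-Glo luminescence.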
NPC1 prom act = NPC1 promoter activation | Huh7 NPC1 promoter luciferase reporter, 24 h | Potency, µM (titrated, usually from 9.22 µM), inactives show top-dose activation, most hits filed as activators | actives 2.4% (n = 320,000);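 also: potency is read from the fitted curve at half-maximal effect; % of control where 0% means no effect; nearly all actives have a fitted effect of over 60% in size; reporter is driven by a mutant NPC1 promoter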
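Luminescence from an NPC1 promoter-driven luciferase reporter in stably transfected Huh7 cells was measured after 24 h compound treatment at 37 °C, followed by 10 min ambient incubation with luciferase detection reagent.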
Giardia kill = Giardia lamblia killing; Giardia lamblia trophozoite viability; actives 0.15% (n = 340,000); activity change, % at 7.66 µM, hits read low; in the data active = activity change below about -80%; inconclusive = between about -30% and that limit;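 also: parasites exposed to compound for two days anaerobically before the ATP read; % is scaled to controls: 0 for no effect and ±100 for the full control effect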
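Giardia lamblia trophozoites (100 cells/well) were incubated with compounds for 48 h at 37 deg C under anaerobic conditions. Viability was read as ATP content by one-step luminescence after 15-30 min at room temperature.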
* hit, by the source's call; ? = inconclusive; / = no result given; & = joins results of further samples; [ ] = another dose, or the depositor's remark. Unless noted, calls follow the shape of the dose curve; as a rule, active = well fitted activation curve with a large enough effect; inconclusive = small, poorly fitted or top-dose-only effect; inactive = no such curve, though single readings can be large or run the other way. This is a subset; count on the stated rates, not on these rows.

Sample of the layout, four compounds:
| item | mol | Menin MLL FP TR | ELG1 genotox | BRCA1 expr up | Rab9 promoter act |
| --- | --- | --- | --- | --- | --- |
| 1 | CN(C)c1ccc(O)c2c1CC1CC3[C@@H](N(C)C)C(=O)C(C(N)=O)=C(O)[C@]3(O)C(=O)C1=C2O (stereo partly drawn) | 0% | 0% | 8% | -6% |
| 2 | Nc1ncnc2c1ncn2[C@@H]1O[C@@H](CO)[C@H](O)[C@H]1O | 11%[24.8 µM] | / | / | / |
| 3 | Nc1ncnc2c1ncn2C1OC(CO)C(O)C1O (stereo not drawn) | ? | 1% | 58% | 0% |
| 4 | CCC1(O)CC2CN(CCc3c([nH]c4ccccc34)[C@@](C(=O)OC)(c3cc4c(cc3OC)N(C=O)C3[C@]45CCN4CC=C[C@@](CC)([C@@H](OC(C)=O)[C@]3(O)C(=O)OC)[C@H]45)C2)C1 (stereo partly drawn) | ? | / | / | -26%[46.1 µM] |

| item | PKM2 activator | NPC1 prom act | Giardia kill |
| --- | --- | --- | --- |
| 1 | -1% | 1% | 4 |
| 2 | / | / | / |
| 3 | 3% | -2% | 0 |
| 4 | / | -9%[46.1 µM] | / |

The whole of this part, from the start:
| item | mol | Menin MLL FP TR | ELG1 genotox | BRCA1 expr up | Rab9 promoter act |
| --- | --- | --- | --- | --- | --- |
| 1 | CN(C)c1ccc(O)c2c1CC1CC3[C@@H](N(C)C)C(=O)C(C(N)=O)=C(O)[C@]3(O)C(=O)C1=C2O (stereo partly drawn) | 0% | 0% | 8% | -6% |
| 2 | Nc1ncnc2c1ncn2[C@@H]1O[C@@H](CO)[C@H](O)[C@H]1O | 11%[24.8 µM] | / | / | / |
| 3 | Nc1ncnc2c1ncn2C1OC(CO)C(O)C1O (stereo not drawn) | ? | 1% | 58% | 0% |
| 4 | CCC1(O)CC2CN(CCc3c([nH]c4ccccc34)[C@@](C(=O)OC)(c3cc4c(cc3OC)N(C=O)C3[C@]45CCN4CC=C[C@@](CC)([C@@H](OC(C)=O)[C@]3(O)C(=O)OC)[C@H]45)C2)C1 (stereo partly drawn) | ? | / | / | -26%[46.1 µM] |
| 5 | COc1ccccc1N1CCN(C[C@@H](O)COc2cccc3ccccc23)CC1 | -5%&-2%[24.8 µM] | / | / | / |
| 6 | CCCCc1nc(Cl)c(CO)n1Cc1ccc(-c2ccccc2-c2nnn[nH]2)cc1 | / | / | 5% | / |
| 7 | COc1cccc2c1C(=O)c1c(O)c3c(c(O)c1C2=O)C[C@@](O)(C(=O)CO)C[C@@H]3O[C@H]1C[C@H](N)[C@H](O)[C@H](C)O1 | ? | -11% | -42% | -38%[inhibitor] |
| 8 | C=C[C@](C)(O)CCC=C(C)C | 13% | / | / | / |
| 9 | CN(C)c1cccc(O)c1 | / | 2% | -9% | -3% |
| 10 | O=c1[nH]c(=O)n(C2CC(O)C(CO)O2)cc1C(F)(F)F (stereo not drawn) | 13% | / | / | / |
| 11 | C[C@@H]1O[C@H](O[C@@H]2[C@H](C)O[C@H](O[C@@H]3[C@H](C)O[C@H](O[C@H]4CC[C@]5(C)[C@@H](CC[C@@H]6[C@H]5C[C@@H](O)[C@]5(C)[C@@H](C7=CC(=O)OC7)CC[C@]65O)C4)C[C@@H]3O)C[C@@H]2O)C[C@H](O)[C@@H]1O | -11%[24.8 µM] | / | / | / |
| 12 | CN(C)c1ccc(O)c2c1C[C@@H]1C[C@H]3C(N(C)C)C(=O)C(C(N)=O)=C(O)[C@@]3(O)C(=O)C1=C2O (stereo partly drawn) | 1% | / | / | / |

| item | PKM2 activator | NPC1 prom act | Giardia kill |
| --- | --- | --- | --- |
| 1 | -1% | 1% | 4 |
| 2 | / | / | / |
| 3 | 3% | -2% | 0 |
| 4 | / | -9%[46.1 µM] | / |
| 5 | / | / | / |
| 6 | / | / | -16 |
| 7 | -20% | -35%[inhibitor] | 1 |
| 8 | / | / | / |
| 9 | / | -1% | 12 |
| 10 | / | / | / |
| 11 | / | / | / |
| 12 | / | / | / |

(continued)
| item | mol | Menin MLL FP TR | ELG1 genotox | BRCA1 expr up | Rab9 promoter act |
| --- | --- | --- | --- | --- | --- |
| 13 | C[C@@]12CCC(=O)C=C1CC[C@H]1[C@H]3CC[C@](O)(C(=O)CO)[C@]3(C)CC(=O)[C@@H]12 | 1%[24.8 µM] | / | / | / |
| 14 | CC12CCC(=O)C=C1CCC1C2C(=O)CC2(C)C1CCC2(O)C(=O)CO (stereo not drawn) | 6% | 6% | -24% | 2% |
| 15 | COC(=O)c1ccc2c(c1)C(C)(C)C(/C=C/c1ccc(O)cc1)=[N+]2C | ? | ? | -97%[inhibitor] | -36%[inhibitor] |
| 16 | Cc1ccc(S(=O)(=O)N(CC(=O)O)Cc2ccccc2)cc1 | -3% | -1% | -19% | 7% |
| 17 | CN1[C@@H]2CC[C@H]1CC(OC(=O)c1c[nH]c3ccccc13)C2 (stereo partly drawn) | 16% | / | 0% | / |
| 18 | C[C@H]1CC2[C@@H]3CCC4=CC(=O)C=C[C@]4(C)[C@@]3(F)[C@@H](O)C[C@]2(C)[C@@]1(O)C(=O)CO (stereo partly drawn) | -1% | / | / | / |
| 19 | COc1ccc(NC(=O)CNC(c2ccccc2)c2ccccc2)cc1 | -13% | 0% | -18% | 0% |
| 20 | Cc1cc(C(=O)NNCc2ccccc2)no1 | 13%[24.8 µM] | 12% | 25% | 3% |
| 21 | C#CCN(C)Cc1ccccc1 | -3% | 1% | 6% | 1%[46.1 µM] |
| 22 | C[C@@H]1CN(c2c(F)c(F)c3c(=O)c(C(=O)O)cn(C4CC4)c3c2F)C[C@H](C)N1 | 1%&15%&8% | -5% | 18% | 6% |
| 23 | C#CC1(O)CCC2C3CCC4=C(CCC(=O)C4)C3CCC21C (stereo not drawn) | / | / | -33% | / |
| 24 | c1ccc(CCNc2nc(-c3ccccn3)cs2)cc1 | 0% | ? | ? | 2µM* |

| item | PKM2 activator | NPC1 prom act | Giardia kill |
| --- | --- | --- | --- |
| 13 | / | / | / |
| 14 | 0% | -3% | -3 |
| 15 | -34% | -37%[inhibitor] | -18 |
| 16 | -4% | -1% | -10 |
| 17 | / | / | 2 |
| 18 | / | / | / |
| 19 | -1% | -1% | ? |
| 20 | / | 6% | 11 |
| 21 | -15% | 1%[46.1 µM] | 0 |
| 22 | / | 0% | -11 |
| 23 | / | / | 12 |
| 24 | 0% | 3.5µM* | 3 |

Next entries follow:
| item | mol | Menin MLL FP TR | ELG1 genotox | BRCA1 expr up | Rab9 promoter act |
| --- | --- | --- | --- | --- | --- |
| 25 | C[C@@]12CCC(=O)C=C1CC[C@@H]1[C@@H]2[C@H](O)C[C@]2(C)[C@@H]1CC[C@]2(O)C(=O)CO | 10%[24.8 µM] | / | / | / |
| 26 | CC12CCC(=O)C=C1CCC1C2C(=O)CC2(C)C1CC[C@]2(O)C(=O)CO (stereo partly drawn) | -11% | 0% | -1% | -2% |
| 27 | C[C@]12CCC(=O)C=C1CC[C@@H]1[C@@H]2[C@@H](O)C[C@@]2(C)[C@H]1CC[C@]2(O)C(=O)CO | 5%&-7% | 8%&17% | 8%&0% | -5%[46.1 µM] |
| 28 | CCN1CCC[C@H]1CNC(=O)c1c(OC)ccc(Br)c1OC | 3% | -7% | -1% | -1% |

| item | PKM2 activator | NPC1 prom act | Giardia kill |
| --- | --- | --- | --- |
| 25 | / | / | / |
| 26 | / | 1% | ? |
| 27 | 5% | 6%[46.1 µM] | -2&-7 |
| 28 | / | 1% | 11 |

Complete entries, quoted from the list:
`C[C@]12CCC(=O)C=C1CC[C@@H]1[C@@H]2[C@@H](O)C[C@@]2(C)[C@H]1CC[C@]2(O)C(=O)CO` in the list: Menin MLL FP TR = 5%&-7%; ELG1 genotox = 8%&17%; BRCA1 expr up = 8%&0%; Rab9 promoter act = -5%[46.1 µM]; PKM2 activator = 5%; NPC1 prom act = 6%[46.1 µM]; Giardia kill = -2&-7
`CC12CCC(=O)C=C1CCC1C2C(=O)CC2(C)C1CC[C@]2(O)C(=O)CO` (stereo partly drawn) in the list: Menin MLL FP TR = -11%; ELG1 genotox = 0%; BRCA1 expr up = -1%; Rab9 promoter act = -2%; PKM2 activator = /; NPC1 prom act = 1%; Giardia kill = ?

Assay outcomes from PubChem.
